Anthrax LT inh: qHTS Assay for Anthrax Lethal Toxin Internalization. Cells, anthrax lethal toxin internalization, FRET ratio (460/530). Potency, µM (titrated, usually from 40 µM), for inactives: at the top dose activity change, negative = inhibition, usual class: inhibitors. 0.67% of 70,000 active; active = well fitted falling ratio curve with the 530 nm signal flat; inconclusive = other ratio curves, or a change in one channel alone; inactive = flat curves in the ratio and both channels; the % refers to the ratio; also: % is scaled to controls: 0 for no effect and ±100 for the full control effect; nearly all actives have a fitted effect of over 50% in size; tested in ME-180 cells; beta-lactamase reporter
Prx2 Sm inh: Schistosoma Mansoni Peroxiredoxins (Prx2). Schistosoma mansoni peroxiredoxin 2 (Prx2). S. mansoni Prx2 activity coupled to TGR/GSH (TGR is thioredoxin glutathione reductase), NADPH fluorescence loss, qHTS; some inactives read as strong as hits. Potency, µM. 0.07% of 65,000 active; active means full or partial inhibition curve with a strong effect at the top dose; inconclusive means weaker partial or single-point curve; inactive means no accepted curve; also: series up to 57 µM; many of its hits are not listed in these tables
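Activity is read as the drop in NADPH fluorescence (365/450 nm), recorded every 30 sec for 8 min after H2O2 addition. Prx2 is coupled to TGR-driven NADPH oxidation through glutathione, in phosphate buffer pH 7.4.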
* hit, by the source's call; ? = inconclusive; . = no result given; & = joins results of further samples; [ ] = remark or other dose. Potency is read from the fitted curve at half-maximal effect. The list is partial; rates above refer to the full screens.

SMILES	Anthrax LT inh	Prx2 Sm inh
NCCCCCc1nnc(SCC(=O)Nc2cccc(Cl)c2)o1	-24%	>57
CCCSC1=N/C(=C\C=C\c2ccco2)C(=O)S1	-7%	>57
COc1ccc(-n2nc3c(c2NC(=O)c2c(-c4ccccc4Cl)noc2C)CS(=O)(=O)C3)cc1	1%	>57
CCCCOC(=O)Nc1nnc(CCOCC)s1	-13%	>57
COc1nc(N2CCCCCC2)nc(N2CCCCCC2)n1	-4%	>57
Cc1ccc2oc(=O)c3cnn(CC(=O)NCCN4CCOCC4)c3c2c1	3%	>57
CC(C)CN1CCc2nc(-c3ccccc3)c3c(c2C1)COC(C)C3 (configuration not stated)	-16%[8 µM]	.
O=S(=O)(c1ccc(-c2csc(-c3cccnc3)n2)cc1)N1CCCCC1	?	>57
Cc1nc2ncnn2c(C)c1CCC(=O)Nc1csc(N)n1	16%	>57
CCOC(=O)c1c(C)c(C(=O)NC(C)COC)c(C)n1C (configuration not stated)	0%	>57
COc1ccc(-c2c(=O)n(OCc3ccccn3)c3ccccc3[n+]2[O-])cc1OC	12%	>57
O=C1OC(=O)[C@@H]2[C@@H]1[C@@H]1CC[C@H]2O1	?	>57&>57

In the list so far, these contain a Cl atom:
SMILES	Anthrax LT inh	Prx2 Sm inh
NCCCCCc1nnc(SCC(=O)Nc2cccc(Cl)c2)o1	-24%	>57
COc1ccc(-n2nc3c(c2NC(=O)c2c(-c4ccccc4Cl)noc2C)CS(=O)(=O)C3)cc1	1%	>57

The listing continues:
SMILES	Anthrax LT inh	Prx2 Sm inh
CCOC(=O)c1ccc(NC(=O)Nc2ccc(S(N)(=O)=O)cc2)cc1	.	>57
O=C(CC1NC(=O)NC1=O)NC1(C(=O)NC2CCCCC2)CCCCC1 (configuration not stated)	5%	>57
Cc1ccccc1-n1nc2c(c1NC(=O)c1ccc(S(=O)(=O)N(C)C)cc1)CSC2	-8%	>57
COc1ccc(C(=O)N2CCC[C@@]3(CCN(c4ccccc4)C3)C2)cc1	-1%	>57
O=S(=O)(c1ccccc1)c1nc(Nc2ccccc2N2CCOCC2)sc1Cl	-11%	>57
O=C(NCC(=O)N(CCc1ccccc1)C(C(=O)NC1CCCCC1)c1ccncc1)c1ccco1 (configuration not stated)	11%	>57
O=C(Cn1nc(C(=O)O)c2ccccc2c1=O)NCC1CCCO1 (configuration not stated)	-3%	>57
CCOC(=O)C1=C(C)N=C2SC(CC)C(=O)N2C1c1ccc(OC(C)=O)c(OCC)c1 (configuration not stated)	7%	>57
Cc1ccc2[nH]c(=O)c(CN(CCCN3CCOCC3)Cc3nnnn3C3CCCC3)cc2c1	-13%	>57
Cc1noc(/C=C/c2ccco2)c1S(=O)(=O)N1CCC(C(=O)N(C)Cc2ccccc2)CC1	-17%	>57
Clc1ccc(OCCCn2cncn2)cc1Cl	-4%	>57
CCOC(=O)N1CCN(C(=O)CSCC(=O)Nc2nc(-c3ccc4c(c3)OCO4)cs2)CC1	-6%	>57
CC(=O)N1CCN(c2ccc(NCc3ccccc3)cc2)CC1	-4%	>57
CN(C(=O)c1ccc(Cl)c(S(=O)(=O)N2CCOCC2)c1)c1ccccc1C(=O)O	9%	>57
CCOC(=O)N1CCN(C(=O)c2ccc3c(=O)n4c(nc3c2)CCCCC4)CC1	?	>57
CC1CCN(S(=O)(=O)c2ccc3c(c2)oc(=O)n3CC(=O)NCc2ccc3c(c2)OCO3)CC1	?	>57
Cc1c(NC2=NC3(CCCCC3)Cc3ccccc32)c(=O)n(-c2ccccc2)n1C	-12%	.
CCOC(=O)C(C)Sc1nc(-c2ccco2)cc(C(F)(F)F)c1C#N (configuration not stated)	-29%	>57
COc1ccc(NC(=O)CN(c2ccccc2)S(=O)(=O)N(C)C)cc1OC	-1%	>57
Cc1ccc(C(=O)CSc2nnc(-c3cccs3)n2C)o1	-10%	>57
C/C(CCC(=O)OC[C@@H]1O[C@H](C#Cc2ccccc2)C=C[C@@H]1Oc1ccc(C)cc1)=N/O[C@@H](C)CN1CCCCc2nc(C)c(C)cc21	5%[8 µM]	.
COc1ccc(NC(=O)COn2nnc3ccc(Cl)cc32)cc1OC	-2%	>57
CCC(C)C(=O)Nc1cc(C(=O)OC)cc(C(=O)OC)c1 (configuration not stated)	?	>57
Cc1cc(-c2ccccc2)n2ncc(C#N)c2n1	-13%	>57
O=C(CSc1nc2ccccc2n1-c1ccccc1)NCC1CCCO1 (configuration not stated)	-7%	>57
CCOC(=O)c1c(NC(=O)c2nc3n(n2)C(C(F)F)CC(C)N3)sc2c1CCCC2 (configuration not stated)	10%	>57
Nc1nnc(-c2ccccc2)c(-c2ccccc2)n1	23%	>57
O=C(O)c1cc[c]([Hg][S]c2ncnc3nc[nH]c23)cc1	-5%[8 µM]	0.86*
Fc1ccc(-c2nnc(SCc3ncc(-c4ccccc4)o3)n2CC2CCCO2)cc1 (configuration not stated)	5%	>57
Cc1cc(C)n(-c2nc(NC(C)C)nc(NC(C)C)n2)n1	6%	>57
CCn1c(SCC(=O)N2CCOCC2)nnc1-c1cccs1	-2%	>57
O=C1N(Cc2ccccc2)CCCC12CCCN(Cc1ccccc1)C2=O	7%	>57
Cc1ccc(S(=O)(=O)N2CCOCC2)cc1C(=O)Nc1ccc(-c2cn3ccsc3n2)cc1	-12%	>57
Cc1cc(S(=O)(=O)N2CCN(c3ccccc3C)CC2)ccc1F	?	>57
CCC(C)(C)n1nnnc1C(c1cccs1)N1CCN(Cc2ccccc2)CC1 (configuration not stated)	-2%	>57
Cc1ccc(-n2cc(C(C)(C)C)[nH]c2=S)cc1	-25%	>57
CCOC(=O)Cn1c(N2CCOCC2)nc2c1c(=O)[nH]c(=O)n2C	?	>57
O=C1c2ccccc2-c2ccc(C(=O)N3CCOCC3)cc21	-23%	>57
C=CCn1c(SC(C)C(=O)NCc2ccc3c(c2)OCO3)nnc1C1CCCCC1 (configuration not stated)	-17%	>57
CC(C)(C)NS(=O)(=O)c1cccc(S(=O)(=O)c2cccc(S(=O)(=O)NC(C)(C)C)c2)c1	-14%	>57
COC(=O)CNc1nc(-c2ccncc2)nc2ccccc12	3%	>57
O=C1[C@@H]2C(c3ccccc3Cl)=NO[C@@H]2C(=O)N1Cc1ccccc1	9%	>57
COc1ccc(CCNS(=O)(=O)c2ccc3c(c2)CC(C)N3C(C)=O)cc1OC (configuration not stated)	-12%	>57
Cc1ccc(NC2=NC(c3ccc(C)cc3)n3c(nc(C)cc3=O)N2)cc1 (configuration not stated)	?	>57
Cc1ccc(NC(=O)COC(=O)CCc2c[nH]c(=O)[nH]2)cc1	3%	>57
Cc1cc(C(=O)Nc2sc3c(c2C#N)CCC(C(C)(C)C)C3)no1 (configuration not stated)	-6%	>57
O=C(c1cc(-c2cccs2)on1)N1CCN(c2ccccc2)CC1	-12%	>57
Clc1cccc(N2CCNCC2)c1	?	>57&>57
CCC(CC)C(=O)NCc1ccc2c(c1)cc(C)n2C	-2%	>57
CCOC(=O)c1ccccc1NS(=O)(=O)c1ccccc1	-6%	>57
CN1CCN(c2ncc3nc(-c4cc(F)cc(F)c4)c(=O)n(CCc4ccccc4)c3n2)CC1	?	>57
COCc1[nH]nc2c1C(c1c(F)cccc1Cl)C(C#N)=C(N)O2 (configuration not stated)	14%	>57
Cn1c(=O)n(Cc2ccc(Cl)cc2)c(=O)c2c1nc1n2CCN1Cc1ccco1	25%	>57
COc1ccc(C(c2nnnn2Cc2cccs2)N2CCN(c3ccccc3F)CC2)cc1 (configuration not stated)	?	>57
CCN(CC(=O)NC1CCCCC1)S(=O)(=O)c1ccc(Cl)cc1	14%	>57
Cc1cc(C)n2nc(C(=O)NCc3ccccc3)cc2n1	9%	.
CN(C)c1cccc(NC(=O)Cc2ccc(F)cc2)c1	-17%	>57
CCn1c(Cc2ccccc2)nnc1SCC(=O)Nc1nccs1	5%	>57
Nc1nc2c(c3c1c(=O)oc1ccccc13)CCCCC2	-10%	>57
CC(C)CO/N=C1/C[C@@H](O)[C@@H](O)[C@@H]2[C@@H]3C(=O)N(C[C@@H]4CCCO4)C(=O)[C@H]3CC[C@H]12	3%[0.32 µM]	.
More results.
SMILES	Anthrax LT inh	Prx2 Sm inh
O=C(CCN1CCN(CC(=O)Nc2ccccc2F)CC1)Nc1ccccc1F	-7%	>57
Cc1cc(OC2CCCCC2)nc(-c2ccccc2O)n1	?	.
Cc1ccc(-n2ncc(-c3nnc(SCC(=O)NC4CCCC4)o3)c2N)cc1C	-4%	>57
CC(=O)Nc1ccc(S(=O)(=O)NCCc2ccccc2)cc1	0%	>57
O=C(Nc1ccc(Cl)cn1)C1CCCN1S(=O)(=O)c1ccc(Cl)cc1 (configuration not stated)	?	>57
O=C1NC(=O)c2c(NC(=O)C3CCCO3)cccc21 (configuration not stated)	2%	>57
Cc1cc(C)c2nc(-c3ccccn3)cc(C(=O)Nc3cc(C)on3)c2c1	-3%	>57
COc1ccccc1OCC(=O)Nc1ccccn1	-2%	>57
CC(=O)N1CN(CCCn2ccnc2)Cc2c1sc1c2CCCC1	-12%	>57
COc1ccc(CNc2nc(-c3ccccc3OC)nc3ccccc23)c(OC)c1	?	>57
Cc1cc(N2CCN(C(=O)OC(C)(C)C)CC2)n2ncnc2n1	-9%	>57
CCC1(c2ccccc2)C(=O)N(COC)C(=O)N(COC)C1=O	-10%	.
CCCCn1c(=O)[nH]c(=O)c2c1nc(-c1ccc(C#N)cc1)n2C1CCCC1	8%	>57
O=c1c(-c2ccc(F)cc2)nc2cnc(N3CCOCC3)nc2n1C1CC1	?	>57
CCOC(=O)C(C)Oc1ccc(C2NC(=O)NC(C)=C2C(=O)Nc2ccccc2C)cc1 (configuration not stated)	?	>57
CCC(COC(=O)Nc1cccc(C)c1)NC(=O)OCC(C)C (configuration not stated)	11%	>57
Cc1ccc(C(=O)Nc2cnc3sc(C)nn3c2=O)cc1	.	>57
O=C(Cc1cccs1)Nc1nc2ccccc2s1	?	>57
COC(=O)C1=C(C)OC(N)=C(C#N)C1c1c(C)nn(-c2ccccc2)c1Cl (configuration not stated)	6%	>57
COCCNC(=O)Nc1ccc2c(c1)N(C)C(=O)CS2	?	>57
CCOC(=O)N1CCN(S(=O)(=O)c2ccc3c(c2)oc(=O)n3C)CC1	.	>57
CCc1ccccc1NC(=O)C(C#N)Cc1cccnc1 (configuration not stated)	-6%	>57
CC1(C)CCCC2=C1CC1C(=O)N(O)C(=O)C1C2 (configuration not stated)	-5%	>57
[O-][N+]1(CC[N+]2([O-])CCCCC2)CCCCC1	-21%[8 µM]	>57
COc1ccc2c(=O)c3c(=O)n(Cc4ccco4)c(-c4ccccc4)nc3oc2c1	3%	>57
Cc1c(NC(=O)C(C)OC(=O)COc2cccc3c2OC(C)(C)C3)c(=O)n(-c2ccccc2)n1C (configuration not stated)	4%	>57
Cc1onc(-c2ccccc2Cl)c1C(=O)NCC(=O)O	6%	>57
COc1c(O)cccc1-c1nnn(CCC(=O)OCC(=O)c2ccccc2)n1	-3%	>57
O=C(CSc1nnc(-c2ccccc2F)n1C1CCCCC1)N1CCCC1	8%	>57
O=C(CCCOc1ccccc1)Nc1cccc(C(=O)O)c1	-3%	>57
Cc1ccc(C(C)C)c(OCC(O)CN2CCOCC2)c1 (configuration not stated)	-4%	>57
COc1ccc(C2C(=O)N(C3CCCCC3)CC(=O)N2Cc2ccco2)cc1 (configuration not stated)	2%	>57
Cc1ccc(-c2nc3cnccn3c2Nc2ccc3c(c2)OCO3)o1	-12%	>57
C=CCNC(=O)NS(=O)(=O)c1ccc(C)cc1	2%	>57
O=c1c2ccccc2nc2n1CC/C2=C/N1CCN(c2cccc(C(F)(F)F)c2)CC1	-30%	>57
C/C(=N/NC1=NCCN1)c1cn(C2=NCCN2)nc1C	-12%[8 µM]	>57

In a second layout: results already given
Order of values – Anthrax LT inh | Prx2 Sm inh
> Cc1onc(-c2ccccc2Cl)c1C(=O)NCC(=O)O
 : 6% | >57
> COc1ccc(-c2c(=O)n(OCc3ccccn3)c3ccccc3[n+]2[O-])cc1OC
 : 12% | >57
> Cc1cc(C)n(-c2nc(NC(C)C)nc(NC(C)C)n2)n1
 : 6% | >57
> COC(=O)C1=C(C)OC(N)=C(C#N)C1c1c(C)nn(-c2ccccc2)c1Cl (configuration not stated)
 : 6% | >57
> COc1nc(N2CCCCCC2)nc(N2CCCCCC2)n1
 : -4% | >57
> COc1ccccc1OCC(=O)Nc1ccccn1
 : -2% | >57

Additional entries.
SMILES	Anthrax LT inh	Prx2 Sm inh
CC(C)NC(=O)c1cc(-c2ccc(Br)cc2)on1	-4%	>57
Cc1ccc(Nc2cc(-n3nc(C)cc3C)ncn2)c(C)c1	-6%	.
O=C(Nc1ccc(C(F)(F)F)cc1Cl)c1ccc(Cn2cc(Br)cn2)o1	-26%	>57
O=C1C[C@@H](O)[C@@H](O)[C@@H]2[C@H]3C(=O)N(c4ccc(F)cc4F)C(=O)[C@@H]3CC[C@@H]12	-6%[8 µM]	.
Cc1cc(C)n(S(=O)(=O)c2cc(C(=O)O)c(Cl)cc2Cl)n1	.	>57
O=C(CNC(=O)c1ccco1)OCc1cccc(Cl)c1	15%	>57
NCCc1nnc(SCc2ccccc2F)o1	.	>57

Pulled by structure from above (two):
SMILES	Anthrax LT inh	Prx2 Sm inh
CC(C)NC(=O)c1cc(-c2ccc(Br)cc2)on1	-4%	>57
NCCc1nnc(SCc2ccccc2F)o1	.	>57
